# A1 inh: caspase 3/7 activation in MEF A1-2A-BIM cells, primary screen, A1 inhibitor project, cell-based, luminescence, HTS; Caspase-Glo 3/7 luminescence, 3 h; percent of clofoctol response, vehicle zero; caspase activation, % (concentration not given with the values); 330,000 tested, 0.066% active; AID 2462, 2010;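 active = over half of replicate activation scores above 10%, or exactly half above 10 with the replicate mean above 10; inconclusive = replicate mean below 10 yet half the replicates above 10; inactive = over half of replicates below 10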;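 also: wells of about 30 µL received 50 nL stock; many hits fall short of the cut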
# T cruzi repl: inhibitors of intracellular T. cruzi growth, primary screen, luminescence, NIH3T3 host cells; T. cruzi beta-gal in NIH3T3, 90 h; inhibition, % (test concentration not listed); 300,000 tested, 1.4% active; AID 1885, 2009;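 active = mean inhibition across valid replicates above about 55%, limit read from the data; inconclusive = mean below that limit but half or more replicates reach it; inactive = mean below it, under half of replicates reach it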;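 also: signal also drops with host cell toxicity which is not excluded here; 0% = plate median of DMSO wells and 100% = zero luminescence signal; higher percent means less beta-gal luminescence so fewer parasites; stock transfer was 50 nL into about 50 µL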
# RanGTP-Impb inh: inhibitors of RanGTP-importin-beta interaction, primary screen, biochemical, FRET, CFP-Ran, YFP-importin-beta, homogeneous. AID 2216, 2009. inhibition, % (test concentration not listed). 300,000 tested, 1.1% active. Ran GTPase (GTP-bound) - importin-beta complex. cell-free CFP-Ran/YFP-importin-beta FRET ratio;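 active = most replicates above 15%; inconclusive = exactly half above 15%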;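 also: 0% = DMSO wells and 100% = Ran loaded with GDP instead of GTP; wells of about 40 µL received 100 nL stock; the first replicate is given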
# Beta cell apopt: inhibitors of cytokine-induced beta cell apoptosis, primary screen, luminescence. 300,000 tested, 0.8% active. protection from apoptosis, % (test concentration not listed). INS-1E cytokine-induced death, ATP luminescence, 48 h; percent of positive-control rescue, neutral wells zero;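 active = all replicates at 75% or more, or half of them and the mean; inconclusive = half reach 75% but not the mean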;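 also: 0% = cytokine-treated negative control wells and 100% = positive control rescue; higher means more ATP so stronger rescue from cytokine killing; wells of about 40 µL received 100 nL stock; the first replicate is given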
# AF4-AF9 inh: inhibitors of AF4 peptide binding to AF9, primary screen, biochemical, AlphaScreen, biotin-AF4 peptide, FLAG-AF9, single point; inhibition, % at 10 µM; AID 651704, 2012; 350,000 tested, 0.47% active; Protein AF-9 (Homo sapiens), P42568;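 active = every replicate reaching a set inhibition limit, whatever the replicate mean, cut at about 25% in these data; inconclusive = mean inhibition reaches that limit but some replicates miss it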;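 also: 0% = plate neutral control median and 100% = total signal loss; the record names both 10 and 1 µM as test concentration; the first replicate is given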
# Target sequence (P42568 whole entry, looked up): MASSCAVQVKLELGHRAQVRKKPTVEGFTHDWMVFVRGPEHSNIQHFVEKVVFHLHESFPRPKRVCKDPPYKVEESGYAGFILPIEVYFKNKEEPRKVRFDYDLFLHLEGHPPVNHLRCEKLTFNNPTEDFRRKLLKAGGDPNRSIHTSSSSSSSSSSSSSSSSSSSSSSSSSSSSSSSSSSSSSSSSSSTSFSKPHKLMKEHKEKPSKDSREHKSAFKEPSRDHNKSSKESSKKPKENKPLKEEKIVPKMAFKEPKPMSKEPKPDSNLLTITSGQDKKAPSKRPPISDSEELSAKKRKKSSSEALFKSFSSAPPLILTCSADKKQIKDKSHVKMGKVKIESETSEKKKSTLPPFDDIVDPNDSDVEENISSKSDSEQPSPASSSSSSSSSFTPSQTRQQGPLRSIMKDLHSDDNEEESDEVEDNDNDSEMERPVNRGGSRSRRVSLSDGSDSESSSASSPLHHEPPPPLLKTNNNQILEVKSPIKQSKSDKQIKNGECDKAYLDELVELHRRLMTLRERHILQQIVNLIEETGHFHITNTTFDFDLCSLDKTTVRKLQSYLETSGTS
# rRNA inh HTS: reduced GFP signal of wild-type E. coli, primary screen, bacterial rRNA inhibitor project, GFP/RFP fluorescence, OD600, single point; E. coli WT GFP vs humanized-ribosome RFP mutants, 24 h; active compounds read low; DMSO median 0, no signal -100; GFP signal change (wild-type ribosome), % (concentration not given with the values); 350,000 tested, 1.6% active; AID 720706, 2013;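 active = significant combined selectivity score with lowered wild-type GFP, culture density cut under 30%, mutant RFP and density less affected; inactive = any of these conditions unmet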; also: one replicate is shown; some compounds called inactive have numbers as strong as hits
# Calb FLC: C. albicans growth inhibition with fluconazole, primary screen, CaCi-2 strain, Alamar Blue fluorescence; growth inhibition, % (test concentration not listed); C. albicans CaCi-2 (fluconazole-resistant clinical isolate) + fluconazole, 48 h; 300,000 tested, 0.57% active;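 active = most replicates above 75%; inconclusive = exactly half above 75%; inactive = most below 75%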;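 also: all wells also contain fluconazole at 8 µg/ml as a sub-toxic cotreatment; 0% = median of DMSO wells and 100% = median of geldanamycin control wells; wells of about 8 µL received 7.5 nL stock; the first replicate is given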
# Vif A3G: inhibitors of Vif binding to APOBEC3G peptide, primary screen, biochemical, TR-FRET, GST-Vif 1-94, biotin-A3G peptide, dose response retest (AID 1117319); Virion infectivity factor (Human immunodeficiency virus type 1 group M subtype B (isolate …; TR-FRET GST-Vif / biotin-A3G peptide binding; higher % means a stronger effect; test concentration not given here; strong numbers were not always called active; one-dose inhibition, %; IC50 in µM for titrated hits; 260,000 tested, 0.57% active;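 active = above the screen mean plus three standard deviations and confirmed in dose response; inconclusive = results disagree or hit not tested in dose response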;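 also: Vif residues 1-94 fused to GST binding biotinylated APOBEC3G peptide 110-148; 0% = full assay without inhibitor and 100% = GST in place of GST-Vif; retest series ran down from 100 µM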
# rRNA inh HTS OD600: also measured in rRNA inh HTS; calls as there; OD600 change, %; measured here: OD600 growth;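 optical density of the mix in the first replicate; 0 = DMSO median and -100 = no signal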
# rRNA inh HTS RFP: also measured in rRNA inh HTS; calls as there; RFP signal change, %; measured here: RFP humanized mutant strains;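 first replicate; 0 = DMSO median and -100 = no signal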
# * = called active by the depositor; ? = inconclusive; · = not tested or not shown.
SMILES,A1 inh,T cruzi repl,RanGTP-Impb inh,Beta cell apopt,AF4-AF9 inh,rRNA inh HTS,rRNA inh HTS OD600,rRNA inh HTS RFP,Calb FLC,Vif A3G
Cc1cccc(C)c1NC(=S)N(c1ccccc1)C(C)C,0.5,-4,?,-5,-4.4,19,10,1.1,-2,·
Cc1cc(C)nc(/N=C(\N)C2=C(O)CC(C)(C)CC2=O)n1,-0.6,10,2.0,1,·,·,·,·,51,-3%
CC1(C)CC(=O)C=C(NCc2ccc(Cl)c(Cl)c2)C1,0.0,-12,2.8,-2,·,·,·,·,6,-5%
CC(C)Cn1c(N)c(C(=O)COC(=O)c2cc3ccccc3cc2O)c(=O)n(C)c1=O,-1.0,·,·,16,-2.5,-1,0,0.6,·,·
CCc1cc2cc3c(cc2nc1SCC(=O)OC(C)C)OCO3,-0.1,25,14,·,-2.8,18,10,-2.6,3,-118%
CCOc1ccc2oc(-c3ccccc3)c(C(N)=O)c2c1,0.3,-3,-2.3,·,0.5,9,16,-0.7,-14,-3%
COc1ccc(Nc2nnc(-c3ccncc3)s2)cc1Cl,-8.5,-13,-2.6,2,-0.1,9,16,0.5,9,8%
CCOc1ccc(NC(=O)CC2C(=O)N(c3ccc(OC)cc3)C(=O)N2CCc2ccc(OC)c(OC)c2)cc1 (stereo unspecified),-0.2,11,-3.0,-4,-0.7,0,1,-0.2,1,2%
CNc1ccc(C(=O)OCC(=O)NC(=O)NC2CCCC2)cc1[N+](=O)[O-],-1.8,·,·,6,-0.2,-2,3,-1.9,·,·
Nc1nc(Nc2cccc(F)c2)nc2ccccc12,-7.5,37,-0.5,25,·,·,·,·,-18,-9%
COc1ccccc1CNc1ncc(-c2ccc(F)cc2)n1C,0.3,-10,-1.5,2,11,-3,2,1.0,-13,0%
O=C(c1cc(-c2ccccc2)nn1-c1ccccc1)N1CCN(S(=O)(=O)c2ccc(F)cc2)CC1,0.0,9,1.6,10,-0.7,2,10,0.3,-3,-5%
Cc1ccc(S(=O)(=O)NC(=O)Nc2ccc(C)cn2)cc1,0.8,-16,3.9,·,-2.8,2,-2,-3.0,1,·
COc1cc2cccc(OC)c(=O)c2c(O)c1OC,0.5,1,-0.5,-1,3.0,-2,-10,-1.5,35,5%
CCCn1ncc(C(=O)N(C)C2CCCN(Cc3ccccc3F)C2)c1C (stereo unspecified),0.2,-4,-0.9,·,0.5,4,2,-1.5,-2,·
CC(=O)Nc1ccc(S(=O)(=O)NCC2CCC(C(=O)NCc3ccccc3)CC2)cc1 (stereo unspecified),0.6,2,?,-4,-3.0,12,10,-5.6,-23,·
CCN1CCN(c2ccc(S(=O)(=O)N3CCCCC3)cc2NC(=O)Cc2ccc(Cl)c(Cl)c2)CC1,-1.1,63*,3.3,14,·,·,·,·,9,37%
O=C(COC(=O)c1ccc(Sc2ccccc2)c([N+](=O)[O-])c1)NC1CCS(=O)(=O)C1 (stereo unspecified),-0.1,9,0.1,-8,·,·,·,·,2,0%
Nc1c(C(=O)c2ccccc2)sc2snc(SCC(=O)c3ccccc3)c12,-0.4,-16,-6.2,12,·,·,·,·,22,4%
CCn1c(=O)c2sccc2n(CC(=O)NCCC2=CCCCC2)c1=O,-0.3,-34,-1.5,-6,-2.6,4,-2,-1.8,5,·

# 6 entries from above, sorted by heavy-atom count, ascending:
SMILES,A1 inh,T cruzi repl,RanGTP-Impb inh,Beta cell apopt,AF4-AF9 inh,rRNA inh HTS,rRNA inh HTS OD600,rRNA inh HTS RFP,Calb FLC,Vif A3G
CC1(C)CC(=O)C=C(NCc2ccc(Cl)c(Cl)c2)C1,0.0,-12,2.8,-2,·,·,·,·,6,-5%
COc1ccc(Nc2nnc(-c3ccncc3)s2)cc1Cl,-8.5,-13,-2.6,2,-0.1,9,16,0.5,9,8%
O=C(COC(=O)c1ccc(Sc2ccccc2)c([N+](=O)[O-])c1)NC1CCS(=O)(=O)C1 (stereo unspecified),-0.1,9,0.1,-8,·,·,·,·,2,0%
CC(C)Cn1c(N)c(C(=O)COC(=O)c2cc3ccccc3cc2O)c(=O)n(C)c1=O,-1.0,·,·,16,-2.5,-1,0,0.6,·,·
O=C(c1cc(-c2ccccc2)nn1-c1ccccc1)N1CCN(S(=O)(=O)c2ccc(F)cc2)CC1,0.0,9,1.6,10,-0.7,2,10,0.3,-3,-5%
CCOc1ccc(NC(=O)CC2C(=O)N(c3ccc(OC)cc3)C(=O)N2CCc2ccc(OC)c(OC)c2)cc1 (stereo unspecified),-0.2,11,-3.0,-4,-0.7,0,1,-0.2,1,2%

# Remaining list, next part.
SMILES,A1 inh,T cruzi repl,RanGTP-Impb inh,Beta cell apopt,AF4-AF9 inh,rRNA inh HTS,rRNA inh HTS OD600,rRNA inh HTS RFP,Calb FLC,Vif A3G
CC(C)(C)C1(c2ccccc2)NC(=O)N(CC(=O)N2CCOCC2)C1=O (stereo unspecified),1.3,-6,-3.1,-9,·,·,·,·,-12,-3%
Cn1c(CCCOc2ccc(Cl)cc2Cl)nnc1SCC(=O)Nc1ccc(F)c(Cl)c1,0.2,-6,-1.7,2,·,·,·,·,-2,-5%
Cc1ccccc1Cn1c(=N)n(CC(O)c2ccco2)c2ccccc21 (stereo unspecified),0.6,-38,?,10,·,·,·,·,1,28%
C#CCN(N(C)c1ncc(C(F)(F)F)cc1Cl)S(=O)(=O)c1ccc2ccccc2c1,-0.8,34,-0.5,-2,·,·,·,·,-1,6%
CN(CCO)C1=NS(=O)(=O)c2cc([N+](=O)[O-])ccc21,-0.8,13,5.5,·,-1.6,15,9,-0.9,-6,1%
COc1cc(NC(=O)CCNS(=O)(=O)c2ccc3c(c2)CCC(=O)N3)cc(OC)c1,0.1,-6,0.4,-5,-14,3,5,-4.5,-13,13%
COCCNS(=O)(=O)c1ccccc1,0.2,1,1.8,-3,2.0,7,9,3.5,25,2%
O=S(=O)(NCCCSc1ccccc1)c1ccccc1F,0.6,3,-3.4,-5,-1.4,-14,-39,-11,15,·
COc1ccccc1N(CC(=O)NC1CC2CCC1C2)S(=O)(=O)c1ccc(C)cc1 (stereo unspecified),0.8,22,2.6,18,-1.0,-41,-49,-6.3,0,·
Cc1nnc(NC(=O)CSc2nnc3ncccn23)s1,0.6,-11,2.8,1,0.2,6,12,-1.6,1,·
COCCNC(=S)N1CCC(c2nc(-c3ccc(F)cc3)no2)CC1,0.3,-29,1.8,0,0.3,-17,-11,-10,?,-4%
Cc1cc(N2CCN(C(=O)c3ccco3)CC2)n2nc(C)c(-c3ccccc3)c2n1,·,22,1.3,·,·,·,·,·,6,-1%
CN(Cc1ccccc1)S(=O)(=O)c1ccc(NS(=O)(=O)Cc2ccccc2)cc1,0.8,8,8.0,3,·,·,·,·,18,21%
Cc1ccc(S(=O)(=O)NC(C(=O)Oc2cc3oc(=O)cc(C)c3cc2Cl)C(C)C)cc1 (stereo unspecified),0.8,9,?,-6,-12,-5,-13,-3.0,-7,·
O=C(NCc1cccs1)c1nc2c(nnn2Cc2ccccc2Cl)c(=O)[nH]1,-0.1,41,4.1,5,·,·,·,·,45,8%
C=CCOc1ccc(C2C(C(=O)c3ccco3)=C(O)C(=O)N2Cc2cccnc2)cc1 (stereo unspecified),-0.2,5,-0.9,-6,·,·,·,·,6,?
[N-]=[N+]=NCC/C=C\C1NS(=O)(=O)OCC1O (stereo unspecified),-0.6,-8,7.0,-12,-9.5,11,9,4.4,-1,·
CCCCCOc1ccc(C2NC(=O)NC2=O)cc1 (stereo unspecified),0.3,-29,3.1,-5,-3.0,-4,-4,5.0,-1,1%
COc1cccc(C(=O)O[C@H]2[C@H](C)NS(=O)(=O)[C@H]3C[C@@H]4C=C[C@]23O4)c1,0.7,·,·,-5,-44,4,4,-1.6,·,·
CC(C(=O)Nc1cccc([N+](=O)[O-])c1)n1nnc2ccccc21 (stereo unspecified),-0.2,-3,0.6,-6,·,·,·,·,-27,25%
COCCn1c(SCC(=O)N2CCN(c3ccccc3)CC2)nc2c(c1=O)SC(C)C2 (stereo unspecified),1.0,12,?,-7,2.5,-6,3,-6.3,-2,·
CCCn1c(O)c2ccc(C(=O)N=NC(=O)c3cccnc3)cc2c1O,-0.4,-9,-2.3,-7,·,·,·,·,3,0%
COc1ccc(/C=C/C(=O)c2oc3ccc(F)cc3c2C)cc1,-0.1,17,3.3,1,·,·,·,·,5,-25%
O=C(CCCOc1ccc(Cl)cc1Cl)NNC(=O)C1CCC1,-0.5,-8,0.1,-3,2.8,-19,-7,-3.1,-10,?
CC(C)(C)c1cccc(OCCCSc2ncccn2)c1,-0.3,20,2.2,-8,·,·,·,·,9,4%
NS(=O)(=O)c1ccc(NC(CNS(=O)(=O)c2ccccc2)c2ccccc2)cc1 (stereo unspecified),-0.4,-4,1.2,1,0.0,-8,-12,7.8,15,-2%
Cc1ccc2nc(C(=O)O)c(C(=O)O)nc2c1,0.3,-9,0.3,3,·,·,·,·,-14,?
O=C(O)c1c2c(nc3ccc(F)cc13)CCC2,-0.1,-12,1.5,-3,2.1,12,4,-1.4,6,·
Cc1cccc(C(=O)NNC(=O)C(=O)NC(C)(C)C)c1,-0.2,5,2.6,-7,·,-4,4,0.3,-7,21%
O=C(Nc1ccc(Cl)c(Cl)c1)Nc1cc(C(=O)NC2CC2)ccc1Cl,0.3,45,-2.9,25,·,·,·,·,-5,21%
Cc1nc(N2CCOCC2)nc(N2CCCC2)c1[N+](=O)[O-],0.5,-19,-1.9,-1,·,·,·,·,1,2%
COCCN(C(=O)COC(=O)c1c(NC(C)=O)sc(C)c1C)c1c(N)n(Cc2ccccc2)c(=O)[nH]c1=O,2.0,2,-2.8,-10,-3.7,7,9,-0.7,24,-13%
CCC(C)[C@H](NS(=O)(=O)c1ccc(C)cc1)C(=O)N1CCC(C(=O)N[C@H](C(=O)O)c2ccccc2)CC1 (stereo partly specified),1.6,3,0.4,-2,-5.4,·,·,·,-1,·
CC(C)(C)c1ccc(OCC(=O)Nc2ccc(C(=O)Nc3ccccc3C(=O)O)cc2)cc1,-3.1,-5,-5.2,-5,-6.0,-14,-7,-0.1,11,1%
CCC(Sc1nnnn1-c1ccccc1)C(=O)NC(C)c1ccccc1 (stereo unspecified),0.9,-6,5.2,-1,0.7,·,·,·,-24,-1%

# Screens (PubChem)

# The list is partial; count on the stated rates, not on these rows.
